Screens: PubChem BioAssay, several laboratories
INS promoter inh = inhibitors of insulin promoter-driven GFP, primary screen, imaging, TRM-6 cells (human fetal islet line), eGFP reporter, cell count | reporter expression induced with tamoxifen | inhibition, % at 2 µM | 130,000 tested, 0.9% active | AID 1273, 2008;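 active = inhibition above the mean plus 3 SD, with well images judged a real hit on visual review, cut at about 60% in these data, passing the limit was not always enough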
RGS16-Gao HTS = modulators of RGS16 binding to Galphao, primary screen, biochemical, human proteins, multiplexed bead flow cytometry. Regulator of G-protein signaling 16 (Homo sapiens) + Guanine nucleotide-binding protein …. bead-based flow cytometry RGS16-Galphao binding, fluorescence; actives lie on both sides. binding response (% of control), % at 10 µM. 220,000 tested, 0.38% active. AID 1441, 2008;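 active = below 25% or above 175%, edge rows of some plates excepted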;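 also: Galphao activated by GDP with aluminum fluoride before binding; 100% = wells without compound and 0% = beads without RGS; some results beyond the cut were filed as inactive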
Target sequence (O15492 whole entry, looked up): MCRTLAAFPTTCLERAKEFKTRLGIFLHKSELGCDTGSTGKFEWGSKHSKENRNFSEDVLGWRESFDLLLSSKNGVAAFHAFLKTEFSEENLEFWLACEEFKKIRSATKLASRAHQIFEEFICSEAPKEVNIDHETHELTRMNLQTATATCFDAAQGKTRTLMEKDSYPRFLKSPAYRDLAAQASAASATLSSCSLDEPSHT
Target sequence (P09471 whole entry, looked up): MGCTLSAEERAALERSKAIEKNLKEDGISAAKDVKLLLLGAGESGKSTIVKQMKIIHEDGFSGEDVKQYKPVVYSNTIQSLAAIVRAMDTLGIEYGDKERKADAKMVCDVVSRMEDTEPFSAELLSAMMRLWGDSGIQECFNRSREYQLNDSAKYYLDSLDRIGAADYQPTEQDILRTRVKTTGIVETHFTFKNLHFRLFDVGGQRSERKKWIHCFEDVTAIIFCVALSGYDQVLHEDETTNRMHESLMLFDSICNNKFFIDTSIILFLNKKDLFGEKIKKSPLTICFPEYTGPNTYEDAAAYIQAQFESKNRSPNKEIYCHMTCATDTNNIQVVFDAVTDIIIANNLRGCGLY
HSV replic up = enhancers of HSV replication in host cells, fold increase, host cell viability; HSV replication augmentation in cells; maximum fold increase; 220,000 tested, 0.005% active;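 active = peak rise of 1.5-fold or more in the series; tested in PC3 cells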;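 also: first round at 10 µM; read as green reporter fluorescence; hits show the peak of a series up to 25 µM; 1 = signal of infected wells without compound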
PKD1 inh = inhibitors of human PKD1 kinase, biochemical, fluorescence polarization. Serine/threonine-protein kinase D1 (Homo sapiens), Q15139. PKD1 kinase fluorescence polarization assay. inhibition, %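 (about 10 µM by stock and volumes)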. 200,000 tested, 0.056% active;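 active = inhibition of 50% or more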;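 also: controls were vehicle for no effect and a reference inhibitor for full effect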
GALR2 ag = GALR2 receptor agonists, primary screen, cell-based; activation, %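 (tested at 5 µM)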; Galanin receptor type 2 (Homo sapiens), O43603; 140,000 tested, 0.48% active; GALR2-expressing cells, agonist activation read-out; AID 803, 2007;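 active = above mean plus 3 SD of all compounds, about 5% in these data, not always enough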;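 also: 0% = vehicle buffer wells and 100% = reference agonist at full effect; tested in CHO reporter cells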
Target sequence (O43603 whole entry, looked up): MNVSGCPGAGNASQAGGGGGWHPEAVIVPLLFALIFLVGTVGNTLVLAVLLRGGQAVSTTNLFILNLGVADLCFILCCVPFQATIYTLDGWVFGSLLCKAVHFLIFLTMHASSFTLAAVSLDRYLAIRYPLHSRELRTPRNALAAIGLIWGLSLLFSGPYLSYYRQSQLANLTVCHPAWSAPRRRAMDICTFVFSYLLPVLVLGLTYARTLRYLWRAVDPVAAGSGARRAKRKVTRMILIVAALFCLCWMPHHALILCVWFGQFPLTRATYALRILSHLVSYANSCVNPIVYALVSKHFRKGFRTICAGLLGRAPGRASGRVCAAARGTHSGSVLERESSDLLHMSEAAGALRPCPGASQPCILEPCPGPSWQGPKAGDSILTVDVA
INS promoter inh cell count = recorded beside INS promoter inh, whose call it bears; normalized cell count, %; measured here: cell count, toxicity; reference of the scale not given here;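 cells exposed to compound for 48 h; stained nuclei by imaging scaled within each plate; lower means fewer cells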
HSV replic up primary fold = recorded beside HSV replic up, whose call it bears; fold increase; compound at 10 µM; measured here: primary screen fold increase 10 uM; tested in PC3 cells;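 GFP signal in the first replicate; 1 = infected wells without compound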
* hit, by the source's call; i = inactive; · = not tested or not shown.

SMILES | INS promoter inh | INS promoter inh cell count | RGS16-Gao HTS | HSV replic up | HSV replic up primary fold | PKD1 inh | GALR2 ag
NC(=O)c1ccc(NC(=O)COC(=O)C(Cc2ccccc2)NC(=O)c2ccccc2)cc1 (stereo unspecified) | 20 | 98 | 91 | i | 0.95 | -7 | ·
S=C(Nc1ccc2nsnc2c1)N1CCCC1 | · | · | 105 | i | 1.1 | -9 | ·
COC(=O)c1ccc(COc2ccc3c4c(c(=O)oc3c2)CCC4)o1 | -15 | 81 | 101 | i | 0.96 | -1 | 1.9
O=C1NC2(CCCCC2)C(=O)N1c1ccccc1 | 33 | 138 | 107 | i | 1 | 14 | -2.3
C=CCn1c(SCc2nc3sc4c(c3c(=O)[nH]2)CCCC4)nc2ccccc2c1=O | -5 | 121 | 99 | i | 0.92 | -4 | 0.0
CC(=O)c1cc2c(O)c(O)ccc2o1 | -188 | 16 | 92 | i | 0.8 | 6 | 0.9
COc1cccc(/C=N/NC(=O)CNC(=O)c2ccc(S(=O)(=O)N3CCOCC3)cc2)c1OC | · | · | 102 | i | 0.91 | -3 | -1.4
O=C(C[n+]1ccc(/C=N/O)cc1)NCc1ccccc1 | · | · | 97 | i | 1.1 | · | ·
NS(=O)(=O)c1cccc(-n2cnnn2)c1 | · | · | 103 | i | 1.1 | · | ·
Cc1cc(C)n(CCc2nc(-c3ccc(F)cc3)cs2)n1 | 7 | 171 | 106 | i | 0.96 | 2 | -0.9
Cc1cc(C)c(S(=O)(=O)Nc2ccc[nH]c2=O)c(C)c1 | 0 | 125 | 102 | i | 0.84 | -2 | -1.7
CCN1C(=O)C2(C(C#N)=C(N)Oc3n[nH]c(-c4ccccc4)c32)c2ccccc21 (stereo unspecified) | -16 | 90 | 104 | i | 0.9 | 1 | -0.5
Nc1nnnn1/N=C/c1ccc(O)cc1 | · | · | 120 | i | 0.9 | -3 | 0.2
O=C(Nc1ccc(F)cc1F)N1CCN(CCc2ccccc2)CC1 | · | · | 99 | i | 0.98 | · | ·
NC(=O)c1ccccc1NC(=O)Nc1ccc(F)c(Cl)c1 | · | · | 100 | i | 0.96 | 4 | ·
Cc1ccc(CSc2nnc(C)c(=O)n2N)cc1 | · | · | 99 | i | 1.2 | -6 | 0.2
CC(=O)c1ccc(N2CCN(C(=O)c3cc(-c4ccc5c(c4)OCO5)nc4ccccc34)CC2)cc1 | 48 | 99 | 104 | i | 0.81 | -10 | -0.2
CCCCOC(=O)Cc1c(O)c2ccccc2[nH]c1=O | 30 | 98 | 76 | i | 0.84 | -10 | -1.2
O=C(CSc1nc2c(c(=O)n1-c1ccccc1)SCC2)N1CCOCC1 | -30 | 112 | 109 | i | 1.1 | 1 | -0.1
Nc1cc[n+](CC(=O)c2ccc3c(c2)OCCO3)cc1 | -4 | 88 | 20 | i | 1 | -2 | -1.6
COc1ccc(NC(=O)c2cc3c(=O)n4ccccc4nc3n2C)c(OC)c1 | -7 | 136 | 98 | i | 0.74 | -7 | ·
CCOC(=O)N1C=CC(C)=C[C@@H]2[C@@H](N3C(=O)c4ccccc4C3=O)C(=O)N21 | -27 | 116 | 100 | i | 0.96 | -12 | -0.7
COc1ccc(N2C(=O)CC(C3CCCO3)C2=O)cc1 (stereo unspecified) | 57 | 128 | 103 | i | 0.82 | -7 | ·
O=C1NC(=S)N/C1=C\c1cccnc1 | · | · | 99 | i | 1 | · | ·
Cc1cccc(NC(=O)C2CCN(c3nc(C)cc(C)n3)CC2)c1 | 18 | 113 | 85 | i | 0.72 | -12 | -0.5

4 compounds already listed, ordered by their value in PKD1 inh, rising:
canonical_smiles	PKD1 inh
CCOC(=O)N1C=CC(C)=C[C@@H]2[C@@H](N3C(=O)c4ccccc4C3=O)C(=O)N21	-12
Cc1ccc(CSc2nnc(C)c(=O)n2N)cc1	-6
COc1cccc(/C=N/NC(=O)CNC(=O)c2ccc(S(=O)(=O)N3CCOCC3)cc2)c1OC	-3
O=C1NC2(CCCCC2)C(=O)N1c1ccccc1	14

Back to the main list, repeating the 2 entries before the break.
SMILES | INS promoter inh | INS promoter inh cell count | RGS16-Gao HTS | HSV replic up | HSV replic up primary fold | PKD1 inh | GALR2 ag
O=C1NC(=S)N/C1=C\c1cccnc1 | · | · | 99 | i | 1 | · | ·
Cc1cccc(NC(=O)C2CCN(c3nc(C)cc(C)n3)CC2)c1 | 18 | 113 | 85 | i | 0.72 | -12 | -0.5
O=C(NNc1c(Cl)cccc1Cl)c1ccno1 | · | · | 99 | i | 0.93 | · | ·
Cc1c(Cl)cccc1NC(=O)CN1CCN(CCN=CC2=C(O)CC(c3ccccc3)CC2=O)CC1 (stereo unspecified) | 20 | 96 | 105 | i | 0.93 | 5 | ·
CCCn1ncc(OC)c(Cl)c1=O | 23 | 90 | 99 | i | 0.91 | 0 | -0.8
CC(N)c1ccc(Cl)cc1Cl (stereo unspecified) | · | · | 104 | i | 1 | 11 | -0.2
Cc1ccc(N=Cc2cc(Cc3ccccc3Cl)cc([N+](=O)[O-])c2O)c(O)c1 | 0 | 118 | 102 | i | 1 | -2 | ·
CN(C)C(=O)c1nc2ccc(Cl)cn2c1CN1CCCC(OCc2ccccc2)C1 (stereo unspecified) | · | · | 100 | i | 1.1 | -4 | ·
CCN(C(=O)CSc1nnc(Nc2cccc(C)c2C)s1)C1CCS(=O)(=O)C1 (stereo unspecified) | -52 | 105 | 96 | i | 1.1 | 2 | -0.9
Nc1c2c(nc3ccc(Br)cc13)N(Cc1ccccc1)CC2 | 69* | 63* | 108 | i | 1 | 0 | -1.6
Cc1ccc(NC(=O)/C(C#N)=C/c2cc(C)n(-c3ccc(N4CCOCC4)c([N+](=O)[O-])c3)c2C)c(C)c1 | 35 | 120 | 103 | i | 0.81 | -3 | -0.3
COc1ccc(CN(CC2CCC(C(=O)O)CC2)C(=S)Nc2ccc(C)c(Cl)c2)cc1 (stereo unspecified) | · | · | 97 | i | 0.94 | -1 | ·
CCn1cc(C(=O)NC(C)C23CC4CC(CC(C4)C2)C3)cn1 (stereo unspecified) | -6 | 115 | 105 | i | 0.97 | 5 | 1.0
COc1ccc(NC(=O)c2cc3nc(-c4ccccc4)cc(-c4ccccc4)n3n2)c(OC)c1 | -75 | 66 | 94 | i | 0.99 | -7 | -0.3
O=C(Cn1nnc(-c2cc(Cl)ccc2-n2cnnn2)n1)N1CCCc2ccccc21 | -4 | 62 | 100 | i | 0.88 | -5 | 0.6
O=C(CSc1nc2ccccc2c(=O)n1CCCN1CCOCC1)NC12CC3CC(CC(C3)C1)C2 | · | · | 98 | i | 0.94 | -2 | ·
C=CCn1c(C)cc(C(=O)COC(=O)CNC(=O)c2ccccc2)c1C | · | · | 114 | i | 1 | 3 | -3.2
CC1(C)CC(=O)C2=C(C1)N=C1SCCC(=O)N1C2c1ccccc1 (stereo unspecified) | 24 | 59 | 104 | i | 0.71 | -1 | -3.9
CN(C)N=Nc1nc2c(c(=O)n(C)c(=O)n2C)n1CC1CO1 (stereo unspecified) | · | · | 104 | i | 0.91 | · | ·
CCOC(=O)c1[nH]c2ccc(OC)cc2c1NC(=S)N1CCN(C(=O)OCC)CC1 | · | · | 103 | i | 0.99 | -1 | ·
O=C(NCCN1CCOCC1)C1CCC(CNS(=O)(=O)c2ccccc2)CC1 (stereo unspecified) | 6 | 35 | 109 | i | 0.95 | -2 | -3.1
CC(=O)Nc1cccc(-c2cn3ccc(C)cc3n2)c1 | 33 | 151 | 100 | i | 1 | -3 | ·
CN(C)C(CNC(=S)Nc1ccc(Cl)cc1)c1cccnc1 (stereo unspecified) | -7 | 108 | 74 | i | 0.84 | 1 | ·
O=C(NC1CCCC1)C(NS(=O)(=O)c1ccc(Br)s1)c1ccccc1 (stereo unspecified) | -107 | 72 | 95 | i | 0.98 | 4 | 0.0
COC(=O)C1=C(C)Nc2c(c(=O)n(C)c(=O)n2C)C1c1cccs1 (stereo unspecified) | · | · | 100 | i | 0.93 | -8 | -0.6
C=CCNC(=S)NCc1ccc(CNC(=S)NCC=C)cc1 | 31 | 93 | 99 | i | 1 | -1 | ·
CCC(C)(C)n1nnnc1CN1CCN(C(c2ccccc2)c2ccccc2)CC1 | 50 | 111 | 106 | i | 0.9 | -5 | -0.1

2 successive entries from above, quoted:
SMILES | INS promoter inh | INS promoter inh cell count | RGS16-Gao HTS | HSV replic up | HSV replic up primary fold | PKD1 inh | GALR2 ag
C=CCNC(=S)NCc1ccc(CNC(=S)NCC=C)cc1 | 31 | 93 | 99 | i | 1 | -1 | ·
CCC(C)(C)n1nnnc1CN1CCN(C(c2ccccc2)c2ccccc2)CC1 | 50 | 111 | 106 | i | 0.9 | -5 | -0.1

Carrying on.
SMILES | INS promoter inh | INS promoter inh cell count | RGS16-Gao HTS | HSV replic up | HSV replic up primary fold | PKD1 inh | GALR2 ag
O=C(O)c1ccc2c3c(cccc13)C(=O)N(c1ccccc1)C2=O | · | · | 105 | i | 1 | -6 | ·
Cc1cc(OCC(=O)Nc2ccc(OCc3ccccc3)cc2)nc(C(C)C)n1 | · | · | 101 | i | 0.99 | -10 | -2.4
CCOC(=O)C1(C)/C(=N/Nc2cccc(Cl)c2)C(=O)C(=O)N1c1ccccc1 (stereo unspecified) | 11 | 100 | 103 | i | 1 | -8 | -0.4
O=P(c1ccccc1)(c1ccccc1)c1nc(-c2ccccc2)oc1N1CCOCC1 | · | · | 111 | i | 1 | · | ·
CNC(=O)N(O)C1N(C)C(=O)N(Cc2ccccc2)C1(C)C (stereo unspecified) | -109 | 102 | 100 | i | 0.93 | -10 | -0.1
Cc1ccc(-c2nn(-c3ccccc3)cc2/C=C/C(=O)O)o1 | · | · | 100 | i | 0.92 | -4 | ·
CNC(=O)COC(=O)c1ccccc1C(=O)c1ccc(Cl)c([N+](=O)[O-])c1 | · | · | 100 | i | 0.64 | -6 | ·
CC(NC(=O)c1cccc(N2CCCC2=O)c1)c1ccc2c(c1)OCCO2 (stereo unspecified) | 30 | 139 | 103 | i | 0.93 | -7 | -2.4
Cc1cc(C)c(C#N)c(N2CCN(Cc3ccccc3)CC2)n1 | 7 | 70 | 112 | i | 1 | -1 | -1.9
COc1cc2c(cc1OC)C(Cc1ccc(O)cc1)NCC2 (stereo unspecified) | 29 | 134 | 105 | i | 0.77 | -16 | -1.7
O=C(COn1nnc2ccc(Cl)cc21)NCc1ccccc1 | 50 | 80 | 104 | i | 0.87 | -1 | -0.9
CCNc1nc(NC(C)CC)nc(Oc2ccc(=O)[nH]n2)n1 (stereo unspecified) | · | · | 106 | i | 0.89 | 0 | 0.1
COc1cc(/C=N/O)c(Br)cc1OCC(=O)Nc1ccccc1C | 58 | 101 | 103 | i | 1 | -4 | -1.7
S=C(NC1CCCCC1)N1CCN(c2ccccn2)CC1 | 31 | 118 | 100 | i | 0.97 | -8 | -0.3
COc1ccc(Nc2nc3ccccc3n3cnnc23)cc1 | 64 | 89 | 100 | i | 0.85 | -7 | -2.5
CCOc1ccc(N/C(SCc2cccc([N+](=O)[O-])c2)=C(/C#N)C(N)=O)cc1 | · | · | 101 | i | 1 | -2 | ·
CCOc1cc(/C=C2/NC(=O)NC2=O)cc(Br)c1OCc1ccc(C(=O)O)cc1 | 42 | 126 | 101 | i | 1.1 | 4 | ·
N#Cc1ccc(N2CCOCC2)nc1 | · | · | 111 | i | 1 | · | ·
Cc1ccc(C2=C/C(=C/c3cccnc3)C(=O)O2)c(C)c1 | -23 | 125 | 110 | i | 1 | 5 | -0.4
c1ccc2c(Nc3nc(-c4ccncc4)nc4ccccc34)cccc2c1 | · | · | 102 | i | 0.72 | · | ·
Cc1nc(C(F)(F)F)nc(Nc2ccc(Br)cc2)c1C#N | -42 | 85 | 100 | i | 0.89 | -6 | -2.0
CC1(C)NC(=O)N(CCOCCOc2ccc3ccccc3c2Br)C1=O | -146 | 86 | 100 | i | 0.67 | -4 | -2.5
COc1ccc(N2C(=O)c3ccccc3NC23CCC(C)CC3)cc1 (stereo unspecified) | 8 | 87 | 106 | i | 1.1 | -2 | -0.6
CCSC1=C(C#N)C(c2ccc(F)cc2)CC(=O)N1 (stereo unspecified) | · | · | 52 | i | 0.94 | -7 | -0.7
CCCC(=O)Nc1ccc2nc(SCC(=O)Nc3nccs3)sc2c1 | 27 | 137 | 15* | · | · | -13 | -2.5
O=C(O)/C=C/C(=O)N1CCN(C(c2ccccc2)c2ccccc2)CC1 | · | · | 106 | i | 0.89 | · | ·
COc1ccc(NC(=O)COC(=O)c2cc(OC)c(OC)cc2NC(=O)c2ccco2)cc1OC | · | · | 95 | i | 0.66 | 4 | -0.4
